Sa ugtP lethal = growth inhibition of ugtP-null S. aureus, primary screen, RN4220 ugtP deletion, OD600. 16 h; some inactives read as strong as hits. growth inhibition, % (test concentration not listed). actives 0.54% (n = 330,000). AID 1259309, 2017;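 active means z-score under -3 and OD600 up to 0.15 on both plates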;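 further: plate controls were untreated wells for no effect and antibiotic for full effect; wells of about 80 µL received 100 nL stock; the first replicate is given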
Mtb hypoxia rep = PubChem AID 1159583; actives 0.1% (n = 300,000); fluorescence inhibition, % (no concentration beside the values); M. tuberculosis hypoxia-regulated fluorescent reporter, fluorescence;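 active means 35 to 45% if threefold the growth effect, above 45% if 1.5-fold the growth effect; inactive means the rest, general growth blockers included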;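 further: wells of about 50 µL received 100 nL stock; 0% = vehicle wells and 100% = reference inhibitor wells; whole bacteria with a GFP reporter of the hypoxia response; strong numbers were not always called active; many hits fall short of the cut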
RN4220 kill = growth inhibition of S. aureus RN4220, primary screen, OD600 | 16 h | inhibition, % (concentration not given with the values) | actives 0.33% (n = 330,000);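 active means z-score of -3 or lower and OD600 up to 0.18 on both plates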;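 further: plate controls were untreated cells for no effect and reference antibiotic for full effect; stock transfer was 100 nL into about 80 µL; one replicate is shown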
BJeLR lethal = MLPCN primary cell-based screen for lethality selective to Ras in HRASV12 cells; BJeLR (HRASV12) viability, CellTiter-Glo ATP luminescence, 48 h; reference of the scale not given here; inhibition, % (no concentration beside the values); actives 0.17% (n = 300,000);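 active means replicate mean above 50%; inconclusive means above 50% but judged a plate artefact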;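 further: 50 nL library stock added to about 25 µL; numbers are from one replicate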
Autofluor counter = compound fluorescence in toxin protease inhibitor counterscreen; compound autofluorescence counterscreen, microsphere flow cytometry; stronger effect = higher value; fluorescence intensity (test concentration not listed); actives 3.1% (n = 360,000);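 active means at least 3 SD above the mean of all compounds, about 16000 in these data; inconclusive means too few beads counted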;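 further: 100 nL of 1 mM stock went into each well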
PrP 5UTR inh = inhibition of PrP 5' UTR reporter expression; cell-based PrP 5' UTR mRNA reporter, plate reader; inhibition, % (concentration not given with the values); actives 0.35% (n = 340,000); AID 488862, 2010;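 active means every replicate at 50% or more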;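 further: 0 = median of the neutral control wells; tested in H4 reporter cells; numbers are from one replicate; inactives centre near -14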
Mtb hypoxia rep growth = second read-out of Mtb hypoxia rep, no call of its own (marks repeat the call); growth inhibition, %; measured here: M. tuberculosis growth (absorbance);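 0% = vehicle and 100% = reference antibiotic; read after six days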
* = called active by the depositor; ? = inconclusive; . = no result given.

Compound,Sa ugtP lethal,Mtb hypoxia rep,Mtb hypoxia rep growth,RN4220 kill,BJeLR lethal,Autofluor counter,PrP 5UTR inh
COc1ccccc1N(CCOc1ccccc1)S(=O)(=O)c1ccccc1,3,16,5,9.0,.,3312,-19
Cc1nc(N2CCCCC2)sc1C=O,8,16,7,1.6,8,.,.
COc1ccc(N2CCN(CC(=O)N3CCC(C)CC3)CC2)cc1,0,5,0,1.1,-7,17583*,-13
CCOC(=O)C1CCCN(CC(O)COCc2ccccc2OC)C1 (stereo not given),0,7,3,2.3,0,3177,-35
CN1CCC(=O)N(CCN=[N+]=[N-])CC1,-9,-3,-2,-2.4,2,3517,-7
CCn1c2ccccc2c2c3ncc4cccn4c3ccc21,50,7,7,-9.5,-6,4495,-21
Cc1cc(NC(=O)c2ccco2)ccc1-n1cnnn1,-3,4,1,3.5,4,3916,-60
Cc1ccc(C(=O)OCC(=O)NCc2cccs2)s1,9,0,-5,3.9,.,6779,-26
CCN1C(=O)/C(=C/c2nc3ccccc3c(=O)n2-c2ccc(C)cc2)c2ccccc21,7,1,3,4.0,1,1865,-12
COc1ccccc1NS(=O)(=O)c1ccc2c(c1)N(C(C)=O)CC(C)S2 (stereo not given),-7,-6,-2,10,2,4932,-13
Cc1ccc(NC(=O)Cn2nc(C)c(S(=O)(=O)N(C)C)c2C)cc1C,1,10,2,4.7,18,4619,-9
O=C(Cc1nc(-c2ccc(Br)s2)cs1)NCCN1CCOCC1,-1,11,1,1.1,2,9587,-23
Cc1cc(C(=O)OCc2nnc(-c3ccccc3)o2)c(C)n1-c1ccccc1,6,16,16,1.1,8,2524,-9
COc1cccc(C(=O)COc2ccc(NC(=O)c3cccs3)cc2)c1,-5,-3,-2,0.4,-5,4138,4
COc1ccccc1-c1c(C)nn2c(N)c(-c3ccccc3)cnc12,7,8,5,3.8,10,4105,.
CC(=O)Nc1ccc(S(=O)(=O)Nc2ccc3c(c2)n(C)c(=O)n3C)c(C)c1,5,-1,-2,0.9,-10,3286,-20
CCOC(=O)c1sc(=S)n(CC)c1NC(=O)c1ccccc1C,2,-1,4,6.2,3,5633,.
O=c1c2ccccc2nc2c3ccccc3c(NCCN3CCOCC3)nn12,12,-7,-12,4.8,4,.,.
Cc1ccccc1Nc1nnc(SCC(=O)NCC2CCCO2)s1 (stereo not given),1,9,9,2.3,.,4285,-10
O=C(Nc1ccccc1)C1=C[C@@H](c2ccccc2)C[C@@H](OCc2ccc(CO)cc2)O1,.,.,.,.,3,3414,-17
CCOC(=O)c1ccc(COC(=O)c2cc3ccccc3oc2=O)o1,3,.,.,1.0,.,5650,-32
CCc1ccc(C(=O)NNC(=O)OC)cc1,3,-1,9,3.5,1,4046,-16
CC1CCC2(CC1)N=C(N)Nc1nc3ccccc3n12 (stereo not given),-1,1,-5,2.4,-2,?,-12
S=C(NCCc1ccccc1)Nc1ccccc1N1CCOCC1,6,-2,2,1.2,0,3363,0
Cc1cc(N)nc(SCC(=O)N2C(C)CCCC2C)n1 (stereo not given),2,7,9,4.8,-4,5960,-11

A second format for 4 compounds above:
> CN1CCC(=O)N(CCN=[N+]=[N-])CC1
  Sa ugtP lethal: -9
  Mtb hypoxia rep: -3
  Mtb hypoxia rep growth: -2
  RN4220 kill: -2.4
  BJeLR lethal: 2
  Autofluor counter: 3517
  PrP 5UTR inh: -7

> CCn1c2ccccc2c2c3ncc4cccn4c3ccc21
  Sa ugtP lethal: 50
  Mtb hypoxia rep: 7
  Mtb hypoxia rep growth: 7
  RN4220 kill: -9.5
  BJeLR lethal: -6
  Autofluor counter: 4495
  PrP 5UTR inh: -21

> Cc1cc(NC(=O)c2ccco2)ccc1-n1cnnn1
  Sa ugtP lethal: -3
  Mtb hypoxia rep: 4
  Mtb hypoxia rep growth: 1
  RN4220 kill: 3.5
  BJeLR lethal: 4
  Autofluor counter: 3916
  PrP 5UTR inh: -60

> Cc1ccc(C(=O)OCC(=O)NCc2cccs2)s1
  Sa ugtP lethal: 9
  Mtb hypoxia rep: 0
  Mtb hypoxia rep growth: -5
  RN4220 kill: 3.9
  BJeLR lethal: .
  Autofluor counter: 6779
  PrP 5UTR inh: -26

New compounds follow:
Compound,Sa ugtP lethal,Mtb hypoxia rep,Mtb hypoxia rep growth,RN4220 kill,BJeLR lethal,Autofluor counter,PrP 5UTR inh
COc1ccc(CNCc2cccc(Oc3ccccc3)c2)cc1,.,.,.,.,3,4180,-2
C[C@H]([C@H](O)c1ccccc1)N(C)C(=O)CN,.,.,.,.,1,3970,-34
COc1ccccc1CC(=O)Nc1ccc(S(=O)(=O)N2CC(C)CC(C)C2)cc1 (stereo not given),0,7,2,1.5,.,4233,-15
CCCn1c(SCC(=O)Nc2cc(S(=O)(=O)N3CCOCC3)ccc2Cl)n[nH]c1=O,23,-1,2,7.7,-4,8464,1
Cc1nn2c(-c3ccco3)nnc2c2ccccc12,7,13,14,2.5,0,8979,-26
Cn1c(CSc2nc3ccccc3s2)n[nH]c1=S,-1,7,5,2.8,4,3682,-4
Cc1cccc(Nc2n[nH]c(=S)s2)c1C,-11,9,5,5.4,0,11008,-21
COc1ccc(CNC(=O)c2ccc(Cn3cc(Br)cn3)o2)cc1,14,3,-3,-3.1,2,4369,-16
Cc1cc(NN=Cc2cccc(Cl)c2)nc(NCc2ccccc2)n1,27,-27,-19,62,.,.,.
Cc1ccc(C(=O)ONC(=O)c2ccc(Cl)cc2)cc1[N+](=O)[O-],-1,-1,12,-1.2,1,3700,-11
O=[N+]([O-])c1cc(Cl)c(O)c(-[n+]2c(-c3ccccc3)cc(-c3ccccc3)cc2-c2ccccc2)c1,11,.,.,2.2,-21,4000,-23
O=C(Nc1ccc([N+](=O)[O-])cc1)C1CC12CCC2 (stereo not given),9,7,12,0.7,-6,2571,-25
CC1(C)C2CCC1(C(=O)O)c1nc3ccccc3nc12 (stereo not given),4,-10,1,0.0,1,5496,-21
CO/N=C/C(=N\Nc1ccc(OC)cc1)C(=O)c1ccc(F)cc1,.,.,.,.,2,4146,-25
Cc1nc2nc[nH]n2c(=O)c1NC(=O)c1cccc(OCC(C)C)c1,-3,1,14,-3.2,-15,2405,-7
CCn1c(SCC(=O)Nc2ccccc2C)nnc1-c1ccccc1O,-1,7,6,-1.1,9,8443,-25
Cc1cc(NCCO)c2ccccc2n1,6,0,-5,2.7,1,4023,-21
CC(=O)c1cccc(NC(=O)N2C[C@H]3C[C@@H](C2)c2cccc(=O)n2C3)c1,8,.,.,4.5,-4,5104,-9
COc1ccc(OC)c(NC(=O)CSc2ccc3ccccc3c2)c1,17,.,.,2.8,-9,4901,-10
O=C(CSc1nnc(Cn2nnc3ccccc32)o1)Nc1cccc(Cl)c1,3,8,6,4.5,-1,4194,-9
Cc1ccccc1N1C(=O)C2ON(c3ccccc3)C(c3ccco3)C2C1=O (stereo not given),6,3,3,3.9,-8,5344,-18
COC(=O)CCC/C=C1/SCC(NC(=O)c2ccccc2)/C1=N/O (stereo not given),.,.,.,.,10,3271,4
CCC(=O)Nc1cc(C(=O)OC(C(=O)c2ccc(C)c(C)c2)c2ccccc2)ccc1C (stereo not given),-7,0,-3,-3.4,2,?,-12
CCOc1ccccc1C(=O)OCC(=O)Nc1ccc(OC(F)F)cc1,-2,1,-4,-2.1,7,15788,2
CCNc1nc(NC(C)C)nc(NC(C)(C)C)n1,16,-36,7,0.6,24,4092,-6
COc1ccc(-c2c(C)oc3c(CN4CCN(C)CC4)c(O)ccc3c2=O)cc1,4,15,12,2.1,-3,4047,-7
COc1ccc(C2NCCc3[nH]cnc32)cc1 (stereo not given),1,15,9,3.6,5,6542,-3
CC(=O)NC(CC(C)C)C(=O)NC(=O)NCc1ccccc1 (stereo not given),0,-10,-2,0.4,-1,11221,-5
CC(=O)Cn1nnc2sc3c(c2c1=O)CCC(C(C)(C)C)C3 (stereo not given),30,-3,13,4.1,-10,4350,-108
CC1CCN(C(=O)C2CC(c3ccc(F)cc3)=NO2)CC1 (stereo not given),14,14,18,5.0,0,11242,-29
CCCN1CCN(CCCNC(=O)C2CCCN(c3nnc(-n4cccc4)s3)C2)CC1 (stereo not given),-2,14,10,7.5,10,3154,-4
Cn1nnc(NC(=O)CSc2nnnn2-c2ccc(F)cc2)n1,-13,-3,-2,-4.4,2,5878,-14
COc1ccccc1CC(=O)Nc1ccccc1O,1,17,5,3.3,-10,20480*,-9
Cc1c(CN2CCCC(C(=O)c3cccc(Cl)c3)C2)c(=O)n(-c2ccccc2)n1C (stereo not given),2,2,8,-0.3,1,2214,-12
CCCC(=O)Nc1ccc(Sc2ccc([N+](=O)[O-])cc2)cc1,-19,15,8,-35,4,3391,-11
COc1ccccc1-c1nnc(NC(=O)c2ccc(S(=O)(=O)N(C)CC3CCCO3)cc2)o1 (stereo not given),2,1,0,12,9,4479,0
Cc1ncoc1C(=O)N1CCc2c([nH]c3ccccc23)C1C1CCCCC1 (stereo not given),-3,-1,-5,-3.2,-11,3310,-33
FC(F)(F)c1cc(-c2ccccc2)nc(NCc2cccnc2)n1,-6,.,.,-4.9,0,3300,-3
COc1ccc(NC(=O)NCc2ccc3c(c2)OCO3)cc1,-4,7,-5,-3.7,-2,2454,-3
O=C(NCCCn1ccnc1)Nc1cccc2ccccc12,-6,.,.,-2.2,.,3571,-12
O=[N+]([O-])c1cccc(C=NNc2nc(N3CCCCC3)nc(N3CCCCC3)n2)c1,15,2,-3,3.7,.,.,.
Cc1cc(OCC(O)CN)ccc1Cl (stereo not given),2,7,1,3.5,-2,3219,-24
C/C(=N\NC(=O)CC(C)C)c1ccc(N2CCCCC2)cc1,.,.,.,.,-1,10795,-26
CCSc1nnc(NC(=O)c2c(C)noc2C)s1,-1,9,-8,1.8,-8,4907,-2
CC1CCCCC1NS(=O)(=O)c1ccc(S(=O)(=O)N2CCCC2)cc1 (stereo not given),5,12,-13,14,-10,9944,-15
CC(=O)c1c(O)c(C)c(O)c2c1OC1=CC(=O)C(C(C)=O)C(=O)[C@@]12C (stereo not given in full),-1,4,-3,4.9,24,3445,11
CCC(C)NS(=O)(=O)c1cc2c3c(c1)CCC(=O)N3CCC2 (stereo not given),14,7,-2,8.3,-1,4287,-3
CCCCCCc1cc2cc(C(=O)NCc3ccccc3)c(=N)oc2cc1O,-1,16,5,2.2,2,13038,-29
Cc1cccc(C)c1-n1c(C)nn(-c2ncc(C(F)(F)F)cc2Cl)c1=O,4,6,14,7.9,8,3939,-4
CSc1nc(C)cc(OCC#N)n1,5,1,-3,5.1,-4,3214,2

(next part)
Compound,Sa ugtP lethal,Mtb hypoxia rep,Mtb hypoxia rep growth,RN4220 kill,BJeLR lethal,Autofluor counter,PrP 5UTR inh
CC12CCC3C(CCC4C/C(=N/O)CCC43C)C1CCC2O (stereo not given),.,.,.,.,9,2551,-20
COc1cccc(NC(=O)C2C3C=CC4(O3)C2C(=O)N(CCN2CCCCC2)C4C(=O)NC2CCCCC2C)c1 (stereo not given),4,4,-5,1.5,-4,3071,-12
O=C(Nc1ccc(O)cc1)c1cc2ccccc2c(=O)s1,2,7,1,7.7,1,4611,-50
Cc1cc2nc(/C(C#N)=C\c3ccc(-c4ccccc4C(=O)O)o3)[nH]c2cc1C,14,-13,-8,3.3,8,.,-19
C=CCn1cc(C(=O)N2CCc3ccccc3C2)c(=O)c2cc(S(=O)(=O)N(CC)CC)ccc21,-4,-8,7,-4.2,6,9042,-33
Cc1onc(-c2ccccc2)c1C(=O)NC(CC(=O)O)c1ccc(OC(C)C)cc1 (stereo not given),4,.,.,0.2,1,2716,-6
COc1ccc(N2CC(C(=O)Nc3ncccc3C)CC2=O)cc1 (stereo not given),-5,.,.,1.5,7,2548,-1
COC(=O)CSc1nnc(C)n1-c1cccc(C#N)c1,7,8,6,3.4,0,17539*,39
O=c1nc(N2CCOCC2)ccn1-c1nc(-c2ccccc2)oc1-c1ccccc1,4,2,3,5.6,-2,9860,-3
CSc1ncccc1C(=O)OCC(=O)NC1CCCCC1,-6,-4,5,-6.3,.,3250,-18
O=C(Nc1ccc2c(c1)C(=O)NC2=O)c1ccc(S(=O)(=O)N2CCCC2)cc1,11,3,5,1.1,2,5067,-33
COC(=O)CCC(=O)OC1(C)C(=O)C=C2C=C(C3CC3)N(Cc3ccc4c(c3)OCO4)C=C2C1=O (stereo not given),.,.,.,.,2,3097,-5
